HIV Env fusion = inhibitors of HIV-1 Env-driven cell-cell fusion, primary screen, HeLa-JRFL effector, CEM21 target cells, luciferase. 360,000 compounds, 1.1% hits. inhibition, % at 12.3 µM;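 active = mean replicate inhibition score of at least 50 and every replicate individually at or above 50; inconclusive = only one of the two criteria met; inactive = mean below 50 and not all replicates reaching 50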;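 also: 0% = plate neutral controls and 100% = maraviroc near 300 nM; one replicate is shown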
Rce1 inh = yeast Rce1p protease inhibitors, primary screen, biochemical, fluorescence, cell-free homogeneous. calls only. yeast membranes, quenched prenylated peptide cleavage fluorescence. 290,000 compounds, 0.27% hits. CAAX prenyl protease 2 (Saccharomyces cerevisiae (strain ATCC 204508 / S288c)), Q03530;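 active = fall in fluorescence gain of 50% or more versus controls, with final raw signal at or below 3038400; inconclusive = same 50% fall but final raw signal above 3038400; inactive = fall in fluorescence gain under 50%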;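 also: plate controls were neutral control wells for no effect and wells lacking membranes for full effect; tested at 10 µM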
Yeast UUG start = modulators of yeast start codon fidelity, primary screen, whole organism, S. cerevisiae, single point, plate reader; activity score, % at 18.7 µM; 350,000 compounds, 0.13% hits; S. cerevisiae UUG-firefly luciferase reporter, luminescence/redox ratio;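 active = replicate mean at a twofold rise or more, about +100% in these data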;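 also: firefly luciferase made from a UUG start codon reports start codon fidelity; reporter light over untreated wells divided by growth signal over untreated wells; some hits fall short of that in this replicate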
CSC inhib = cancer stem cell viability inhibitors, primary screen, luminescence. cancer stem cell-like cells viability. 300,000 compounds, 1.1% hits. AID 2717, 2010. inhibition, % at 7.5 µM;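 active = mean at 75% or more and at least half the replicates too; inconclusive = mean and replicates disagree; tested in HMLE shEcad cells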;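 also: 0% = median of negative and 100% = median of positive control wells; the first replicate is given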
MT1-MMP act inh = blockers of MT1-MMP proenzyme processing, primary screen, HT1080 RFP-PRO-GFP cells, GFP/RFP fluorescence; Matrix metalloproteinase-14 (Homo sapiens), P50281; GFP/RFP ratio fluorescence, overnight; percent of plate control window, DMSO zero; GFP/RFP ratio change, % at 20 µM; 360,000 compounds, 0.061% hits; AID 651647, 2012;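 active = GFP/RFP ratio change of at least 30% with cell ATP level not reduced by more than half and red fluorescence within 50% of control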; also: strong numbers were not always called active
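Assay system – RFP-PRO-GFP reporter HT1080 cells · Compound dosing – single dose of 20 µM compound, 1% DMSO final · Incubation – overnight compound exposure at 37 °C · Measure – GFP/RFP fluorescence ratio · Benchmarks – DMSO wells and RFP-L50D-GFP cells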
PABP polyA inh = PABP poly(A) RNA binding inhibitors, primary screen, biochemical, fluorescence polarization, uHTS. Polyadenylate-binding protein 1 (Homo sapiens), P11940. inhibition, % at 35 µM. 290,000 compounds, 1% hits. AID 2014, 2009;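 active = 50% or more with normal probe brightness, or confirmed in later tests; inconclusive = above 50% with abnormal brightness, or retests that disagree; inactive = below 50% or failed in later tests; about a fifth of its hits are not listed in these tables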;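 also: calls also rest on retests at 20 µM and on dose response follow-up; controls were probe without protein and protein plus probe with vehicle; some compounds called inactive have numbers as strong as hits; many hits fall short of the cut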
Target sequence (P11940 whole entry, looked up): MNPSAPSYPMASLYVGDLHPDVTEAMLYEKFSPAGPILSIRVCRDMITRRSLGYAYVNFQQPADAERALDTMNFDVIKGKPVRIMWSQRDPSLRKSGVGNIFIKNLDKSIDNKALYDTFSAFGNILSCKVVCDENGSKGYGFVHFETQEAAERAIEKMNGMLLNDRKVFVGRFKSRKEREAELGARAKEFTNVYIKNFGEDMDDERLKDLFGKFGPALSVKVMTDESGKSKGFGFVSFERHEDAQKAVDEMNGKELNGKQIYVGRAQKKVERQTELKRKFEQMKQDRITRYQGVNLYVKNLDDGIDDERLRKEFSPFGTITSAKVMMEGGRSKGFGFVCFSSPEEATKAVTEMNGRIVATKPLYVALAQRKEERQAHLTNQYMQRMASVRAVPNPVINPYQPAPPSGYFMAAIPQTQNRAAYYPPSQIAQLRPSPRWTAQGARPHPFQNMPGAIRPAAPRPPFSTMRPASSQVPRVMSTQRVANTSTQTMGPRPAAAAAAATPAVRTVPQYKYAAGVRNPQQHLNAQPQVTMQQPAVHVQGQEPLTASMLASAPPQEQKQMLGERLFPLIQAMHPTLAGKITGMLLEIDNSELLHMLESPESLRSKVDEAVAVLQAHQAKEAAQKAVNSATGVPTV
eIF4H inh = human eIF4H binding inhibitors, primary screen, translation initiation inhibitor project, biochemical, uHTS, fluorescence polarization; Eukaryotic translation initiation factor 4H (Homo sapiens), Q15056; eIF4H fluorescence polarization binding assay; inhibition, % at 35 µM; 290,000 compounds, 0.94% hits; AID 2012, 2009;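 active = 50% or more with normal probe brightness, or confirmed in later tests; inconclusive = above 50% with abnormal brightness, or retests that disagree; inactive = below 50% or failed in later tests; about a fifth of its hits are not listed in these tables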;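 also: calls also rest on retests at 20 µM and on dose response follow-up; 0% = protein and probe with vehicle and 100% = probe without protein; strong numbers were not always called active; many hits fall short of the cut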
eIF4H inh retest = further read-out of eIF4H inh, marked with its call; inhibition, %; compound at 20 µM; confirmation average;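 mean of two retest wells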
PABP polyA inh retest = second read-out of PABP polyA inh, no call of its own (marks repeat the call); inhibition, %; compound at 20 µM; confirmation repeats;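 mean of two retest wells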
MT1-MMP act inh RFP = second read-out of MT1-MMP act inh, no call of its own (marks repeat the call); RFP signal change, %; measured here: RFP expression control read;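 0 = vehicle wells; hits needed this value within 50% of zero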
* hit, by the source's call; i = inactive; ? = inconclusive; nt = not tested or not shown.

SMILES	HIV Env fusion	Rce1 inh	Yeast UUG start	CSC inhib	MT1-MMP act inh	MT1-MMP act inh RFP	PABP polyA inh	eIF4H inh	others
CS(=O)(=O)N(CCc1ccccc1)CC(=O)NCc1ccco1	nt	i	-29	-10	1	2	5	-8
O=C(Nc1nnc(SCc2c(Cl)cccc2Cl)s1)c1cccc([N+](=O)[O-])c1	-3	i	0	27	1	-15	-13	-8
Oc1ccccc1-c1nnc2n1CCCCC2	-1	i	-7	-5	3	6	1	-5
CC1CC1C(=O)Nc1nc(-c2ccc(Cl)s2)cs1 (stereo not given)	-1	i	nt	65	4	-14	-1	-5
COc1ccc(N2CCN(C(=O)c3cn(C)c4ccc(S(=O)(=O)N5CCOCC5)cc4c3=O)CC2)cc1	2	i	-1	-8	-1	1	10	-12
CCCCNc1ccc(C(F)(F)F)cc1S(=O)(=O)NCCc1ccc(F)cc1	72*	nt	-6	nt	-4	-14	nt	nt
CC1CCN(C(=S)NC(=O)c2ccccc2Br)CC1	-9	i	-23	1	-3	-1	-1	-10
COc1ccccc1CNC(=O)COC(=O)CNS(=O)(=O)c1ccc(NC(C)=O)cc1	nt	nt	-17	-10	2	2	nt	nt
CC(=O)NC(C(=O)c1ccccc1)N1CCCCC1 (stereo not given)	-15	i	0	18	-5	4	-6	-8
Cc1ccc(CN2CCN(Cc3cccc(OCCO)c3)CC2CCO)o1 (stereo not given)	-5	nt	nt	-7	1	6	-10	-4
O=C(O)CCCSc1nccn1-c1ccccc1	-15	i	nt	-10	-3	0	-7	2
CN1CCN(S(=O)(=O)c2ccc(Br)c3ccccc23)CC1	2	i	-4	-27	nt	nt	0	-4
CC(C)COC(=O)N1CC(O)CC1C(=O)O (stereo not given)	8	i	18	-9	4	7	10	2
CO[C@@H]1[C@@H](OC(N)=O)[C@@H](O)[C@H](Oc2ccc3c(O)c(NC(=O)c4ccc(O)c(CC=C(C)C)c4)c(=O)oc3c2C)OC1(C)C	1	nt	-11	nt	-3	-3	nt	nt
CCCN1CC=C2C(C#N)=C(N)C(C#N)(C#N)C(c3cccc(OC)c3OC)C2C1 (stereo not given)	nt	i	-9	-16	-108	6	-6	?
NC(=O)c1cc([N+](=O)[O-])ccc1NCc1ccc(N)cc1	71*	nt	-19	6	6	1	nt	nt
O=C(Nc1ccc2c(c1)OCO2)[C@@H]1[C@@H]2C(=O)N(C3CCCCC3)C(=O)[C@@H]2C2c3ccccc3C=CN21 (stereo not given in full)	nt	i	nt	-3	nt	nt	-12	-1
O=C(CCn1c(=O)sc2ccccc21)NC1=NCCS1	nt	i	-2	-1	7	4	-12	-3
Cc1ccc(N2CC(C(=O)NC3CCC(C)CC3)CC2=O)cc1 (stereo not given)	-16	i	-13	0	-1	-2	5	0
O=C(CSC(=S)N1CCOCC1)Nc1nc(-c2ccccc2)c(-c2ccccc2)o1	-45	i	nt	-14	25	-8	-2	-14
O=S(=O)(NCc1cccnc1)c1ccc(Cl)c(Cl)c1	nt	nt	-12	nt	2	1	-2	-4
CCOC(=O)C1=C(COc2ccccc2)NC(=O)NC1c1ccc2ccccc2c1 (stereo not given)	6	i	nt	27	nt	nt	nt	nt
Cc1nc2ccccc2c(C)c1CC(=O)OC(C)C(=O)NC1(C#N)CCCCC1 (stereo not given)	-8	i	nt	0	0	-2	nt	nt
COc1ccc(C)cc1NC(=O)c1ccc(NS(=O)(=O)c2cccs2)cc1	0	i	-7	11	1	3	6	6
COCCSc1ccccc1C(=O)NCCc1ccccc1	2	i	nt	-3	-6	0	-6	-8
O=C(N/N=C/c1cc2c(cc1Br)OCO2)C1COc2ccccc2O1 (stereo not given)	-29	i	nt	7	2	-3	2	22
O=C(CN1CCN(Cc2cccc(F)c2)CC1)Nc1ccccc1F	-8	i	-15	1	-1	0	5	3
CCOC(=O)CN1C(=N)N(c2nc(NC(C)C)nc(NC(C)C)n2)CC1=O	nt	i	5	-8	2	-1	-12	4
Cc1ccccc1-n1c(O)cc(=O)[nH]c1=S	14	nt	nt	-3	-6	5	22	53*	eIF4H inh retest=60*;PABP polyA inh retest=35
CC(=O)Nc1ccccc1NC(=O)c1ccc2c(c1)OCO2	-3	nt	-16	nt	2	0	nt	nt
CCCc1cc(=O)oc2cc(OCC(=O)NCCc3c[nH]c4ccc(OC)cc34)ccc12	nt	i	-14	5	-5	-3	1	-12
O=C1CSC(=S)N1c1cccc(Br)c1	-9	i	-26	8	21	27	8	13
O=C(Nc1cccnc1)c1ccc(N2CCOCC2)c([N+](=O)[O-])c1	1	i	-16	-20	0	1	5	2
Cc1ccc(C)c(NC(=S)NNC(=O)c2csc3c2CCC(C)C3)c1 (stereo not given)	-56	i	-26	11	7	2	9	23
CC1(C)CC(=NO)CC(C)(C)N1	-41	i	0	2	-3	2	0	-2
COc1ccc(N2C(=O)CSC23C(=O)N(CC(=O)NC2CCCC2)c2ccccc23)cc1 (stereo not given)	-12	i	-6	-14	1	-1	1	-2
CC(=O)Nc1cc2c3c(c1)CCN3C(=O)CC2	-2	i	-3	-4	3	3	nt	nt
Cc1cccc(C)c1NC(=O)CSc1nnc([C@@H]2CCCN2C(=O)OC(C)(C)C)o1	-69	i	9	-7	1	0	-3	2
Cc1cn(CC(=O)NCc2ccc(N(C)C)cc2)c(=O)[nH]c1=O	14	nt	-5	nt	3	7	nt	nt
COc1cc(C(=O)NCCC(=O)NC2CCCCC2)cc(OC)c1OC	-2	i	-7	-12	-1	2	nt	nt
CCN(c1ccccc1)S(=O)(=O)c1cc(NC(=O)Nc2ccccc2C#N)ccc1Cl	-15	i	nt	14	-2	-7	-9	-11
CCOC(=O)CC1=NN(c2ccccc2)C(=O)C1=c1sc(=C2SC(C)=C(C)N2CC)c(=O)n1CC	7	nt	-13	nt	-1	1	nt	nt
COC(=O)NNC(=O)C12CC3CC(CC(C3)C1)C2	27	i	-8	-2	-4	-2	-10	-10
CC(C)(C)C1CCc2c(sc3nc(SCC(=O)O)nc(N)c23)C1 (stereo not given)	-38	i	-15	-6	9	7	3	-5
CN(C)Cc1csc(Nc2ccc(C(=O)c3ccccc3)cc2)n1	-1	nt	-14	nt	-2	-4	nt	nt
CCn1cc(/C=C/C(=O)Nc2ccc(C)cc2Br)cn1	-49	i	nt	3	0	-6	94	0	eIF4H inh retest=22;PABP polyA inh retest=34
CCN=C1NN=C(c2c[nH]c3ccccc23)CS1	-3	i	nt	-31	0	0	9	-2
Cc1cc(O)c(C(C)C)cc1N=C1CSC(=O)N1	-101	i	-18	7	-5	-3	7	3
COc1ccc(OC)c(S(=O)(=O)N2CCC(C(=O)Nc3ccccc3)CC2)c1	26	i	-13	-10	8	3	-9	-21
O=C(O)c1ccccc1C(=O)NC1CCCCNC1=O (stereo not given)	-63	i	nt	-11	3	4	-3	-9
CC1CCc2nn(CC(=O)NCCCN3CCCCC3)cc2C1 (stereo not given)	3	i	-14	6	2	8	-1	12
Cc1ccccc1CN(C)Cc1cc(=O)oc2c(C)c(C)ccc12	29	i	3	30	0	-7	6	-17
CCc1sc(N(C(=O)Cc2ccccc2)c2ccccc2F)nc1-c1ccc(C)cc1	-1	i	nt	31	-8	-4	2	4
CCc1nnc(NC(=O)COC(=O)CN2C(=O)c3ccccc3C2=O)s1	nt	i	15	-4	3	0	5	3
Cc1cnccc1CN(C)Cc1nc(Cc2ccccc2Cl)no1	10	i	-3	35	-12	-26	4	-11
C=CCNC(=O)c1onc(CSc2ccc(C)c(C)c2)c1C(=O)O	0	i	-15	20	2	3	2	-1
CCCCOC(=O)C1=C(C)NC2=C(C(=O)CCC2)C1c1cc(OC)ccc1OC (stereo not given)	-93	i	-1	-12	0	-2	-1	-6
CN(CC/C=C1/c2ccccc2CSc2ccccc21)CCCO	-18	i	-11	nt	1	5	-6	2
Cc1ccc(S(=O)(=O)N2CCN(C(=O)CN3C(=O)c4ccc([N+](=O)[O-])cc4C3=O)CC2)c(C)c1	5	i	4	-7	2	0	nt	nt
CC(=O)c1ccc(Nc2nc(C(N)CC(C)C)cs2)cc1 (stereo not given)	-14	nt	-8	nt	-4	0	nt	nt

More structures follow:
SMILES	HIV Env fusion	Rce1 inh	Yeast UUG start	CSC inhib	MT1-MMP act inh	MT1-MMP act inh RFP	PABP polyA inh	eIF4H inh	others
O=C(CSc1ccc(-c2cccs2)nn1)NCc1ccccc1Cl	nt	i	nt	5	nt	nt	19	5
COc1ccccc1CNS(=O)(=O)c1ccc2c(c1)NC(=O)CS2	-4	i	nt	-8	0	-3	-2	-8
O=C(Cn1nnc(-c2ccccc2)n1)N/N=C/c1cccc([N+](=O)[O-])c1O	6	i	nt	-1	-1	0	-10	43
O=C(Cn1cnc2c(cnn2-c2ccccc2)c1=O)N1CCN(c2ccc(F)cc2)CC1	-6	i	nt	8	-2	-2	-6	-9
CC(Sc1nnc(-c2cccs2)n1C1CC1)C(=O)NCC1CCCO1 (stereo not given)	-2	nt	-15	nt	-2	1	nt	nt
COC(=O)c1ccccc1Sc1ncnc2onc(C)c12	-2	i	nt	0	-1	-3	-9	4
O=C(CN(CCc1ccccc1)C(=O)CNS(=O)(=O)c1ccc(F)cc1)NCc1ccco1	nt	i	-6	-6	-3	-3	-12	2
O=S(=O)(c1cccs1)N1CCC2(CC1)OCCN2S(=O)(=O)c1ccccc1	0	i	-18	-6	1	-8	nt	nt
CCOC(=O)c1ccc(NC(=O)c2ccc[n+]([O-])c2)cc1	-47	i	-17	3	-4	0	-7	-10
O=C(CSc1nc(C2CC2)nc2ccccc12)N1c2ccccc2Sc2ccc(C(F)(F)F)cc21	9	i	-16	19	14	-7	8	-9
CN1C(=O)CSC1=Nc1cccc(C(=O)O)c1	-23	i	-5	-12	1	2	9	-4
COc1cccc(/C=N/NC(=O)CSCC(=O)Nc2ccccc2)c1O	nt	i	-12	nt	0	0	1	2
COC(=O)CC1C(=O)NCCN1C(=S)Nc1cccc(C)c1 (stereo not given)	-1	i	-27	1	2	9	-7	-5
Cc1ccc(N(C(=O)CNC(=O)c2ccco2)C(C(=O)NC2CCCCC2)c2cccnc2)cc1 (stereo not given)	8	i	-5	-18	0	0	-1	4
N#CCCN1CCN(C(=S)c2ccc(-c3cc(Cl)ccc3Cl)o2)CC1	29	i	-17	18	-4	-12	13	25
CC(C)(C)c1ccc(C(=O)NCC(=O)NCC(C)(C)N2CCOCC2)cc1	9	nt	-5	nt	-4	-3	nt	nt

By substructure: the compounds so far with a tert-butyl group (3)
SMILES	HIV Env fusion	Rce1 inh	Yeast UUG start	CSC inhib	MT1-MMP act inh	MT1-MMP act inh RFP	PABP polyA inh	eIF4H inh	others
Cc1cccc(C)c1NC(=O)CSc1nnc([C@@H]2CCCN2C(=O)OC(C)(C)C)o1	-69	i	9	-7	1	0	-3	2
CC(C)(C)C1CCc2c(sc3nc(SCC(=O)O)nc(N)c23)C1 (stereo not given)	-38	i	-15	-6	9	7	3	-5
CC(C)(C)c1ccc(C(=O)NCC(=O)NCC(C)(C)N2CCOCC2)cc1	9	nt	-5	nt	-4	-3	nt	nt

Only part of the results is shown, so the mix of outcomes need not match the whole.
